# Rango dissoc inh = qHTS Assay for Inhibitors of RanGTP induced Rango (Ran-regulated importin-beta cargo) - Importin beta complex dissociation | AID 540253, 2011 | Biochemical FRET Rango-importin beta, RanGTP-induced dissociation | 340,000 compounds, 0.071% hits | Snurportin-1 (Homo sapiens) + GTP-binding nuclear protein Ran (Homo sapiens) + Importin … | Potency, µM (titrated, usually from 46.1 µM), inactives show at the top dose activity change, negative = inhibition; active means falling FRET ratio curve, often poorly fitted, with flat reads before Ran was added; inconclusive means other falling curves, or compound fluorescence or quenching; inactive means flat or rising ratio curve;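 further: potency means the concentration at half of the fitted maximal effect; % of control where 0% means no effect; nearly all actives have a fitted effect of over 45% in size; -100% = wells without RanGTP and RCC1; the record marks most hits as doubtful in a second field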
#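 Two FRET readings bracket the reaction: one 5 min after compound meets Rango–importin beta, another 45 min after RanGTP-RCC1 (0.6 uM Ran, 0.2 uM RCC1, 2 mM GTP) is added. Only the second defines inhibition.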
# Rango complex inh = qHTS Assay for Inhibitors of Rango (Ran-regulated importin-beta cargo) - Importin beta complex formation; 340,000 compounds, 0.031% hits; AID 540263, 2011; Rango CFP/YFP FRET sensor + importin beta, 45 min; Potency, µM (top dose mostly 92.2 µM), without a hit: at the highest dose inhibition of complex formation; Importin subunit beta-1 (Homo sapiens), Q14974; active = rising FRET ratio curve, often small or poorly fitted; inconclusive = mostly compound fluorescence or quenching in the first reads; inactive = flat curves in all reads;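 further: potency means the concentration at half of the fitted maximal effect; 0% = DMSO wells and 100% = buffer wells lacking importin beta; nearly all actives have a fitted effect of over 15% in size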
#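 FRET biosensor (snurportin 1 IBB flanked by EYFP and cerulean), 50 nM, with compound 5 min, then 0.125 microM importin beta in PBS, 1 mM DTT, 0.02% Tween-20, 0.1% BSA. CFP/YFP ratio read after 45 min at room temperature; pre-read flags interference.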
# GLA inh pH 4.5 = qHTS Assay for Inhibitors of Human alpha-Galactosidase at pH 4.5; Alpha-galactosidase A (Homo sapiens), P06280; purified enzyme, 4-MU-alpha-Gal fluorescence, pH 4.5; activity change, negative = inhibition, % at 105 µM; 230,000 tested, under 10 active; AID 1467, 2008; inconclusive = small, poorly fitted or top-dose-only inhibition, or a rising curve; inactive = flat fitted curve, though single readings scatter; no compound was filed as active;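 further: 0% = full activity with enzyme and -100% = basal without enzyme; dose as in the result columns while the protocol names 77 µM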
# Target sequence (P06280 whole entry, looked up): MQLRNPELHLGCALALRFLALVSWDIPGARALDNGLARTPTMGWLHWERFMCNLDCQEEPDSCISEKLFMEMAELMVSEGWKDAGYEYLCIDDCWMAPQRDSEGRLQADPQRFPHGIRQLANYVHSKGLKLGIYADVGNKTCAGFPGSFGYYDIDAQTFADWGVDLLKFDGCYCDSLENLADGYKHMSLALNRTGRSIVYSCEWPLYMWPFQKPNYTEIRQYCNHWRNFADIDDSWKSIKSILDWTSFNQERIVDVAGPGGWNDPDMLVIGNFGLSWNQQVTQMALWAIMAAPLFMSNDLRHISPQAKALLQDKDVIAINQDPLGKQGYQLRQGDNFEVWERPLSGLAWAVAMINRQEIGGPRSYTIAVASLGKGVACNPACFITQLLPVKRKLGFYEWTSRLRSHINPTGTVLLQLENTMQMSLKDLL
# miR-21 FLuc = qHTS Assay for Modulators of miRNAs and/orActivators of miR-21. HeLa miR-21 FLuc reporter, luciferase, 48 h. Potency, µM (top dose mostly 38.3 µM), for inactives: at the top dose reporter change, positive = more light. 340,000 tested, under 10 active. AID 2288, 2010; active = well fitted rising curve with a large enough effect; inconclusive = small, poorly fitted or top-dose-only effect; inactive = no such curve, though single readings can be large or run the other way;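 further: % of control where 0% means no effect; miR-21 action dims this reporter so a rising signal means less miR-21 action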
#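 HeLa cells stably expressing CMV-driven firefly luciferase with a downstream miR-21 binding sequence, endogenously expressing miR-21, were treated with titrations (up to about 40uM final) for 48 hours at 37 degree Celsius. Luciferase luminescence was read after lysis.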
# The depositor's hits bear a star; ? = inconclusive; · = no result given; & = joins results of further samples. A portion of the library; count on the stated rates, not on these rows.
SMILES,Rango dissoc inh,Rango complex inh,GLA inh pH 4.5,miR-21 FLuc
Cn1c(=O)oc2cc(S(=O)(=O)Nc3ccc4c(c3)OCCO4)ccc21,-4.1%,0.4%,3.7,1.9%
O=C(Nc1ccccc1C(=O)O)c1ccc(Br)c(S(=O)(=O)NCc2ccccc2)c1,-9.5%,-0.4%,-18.6,16.9%
COc1ccccc1N1CCN(C(=O)c2c(-c3c(Cl)cccc3Cl)noc2C)CC1,-8.4%,-0.3%,-12.3,17.5%
O=C(CN1C(=O)CC(c2ccccc2)S(=O)(=O)c2ccccc21)N1CCOCC1 (stereo not drawn),·,·,-1.2,-2.3%
CCOc1ccccc1NC(=S)N1CCN(c2cccc(C)c2C)CC1,-1.0%,0.8%,·,8.4%
CN(C)Cc1c(O)ccc2c(=O)c(-c3ccccc3Cl)c(C(F)(F)F)oc12,-1.2%,5.0%,·,0.6%
Fc1ccc(C(c2nnnn2C2CCCCC2)N2CCCC2)cc1 (stereo not drawn),0.5%,-1.2%,7.0,-5.4%
COc1ccc(S(=O)(=O)NNC(=O)Cc2csc(C)n2)cc1[N+](=O)[O-],-8.5%,6.8%,·,·
COc1cc(OC)cc(C(=O)Nc2ccccc2-c2nnn(CC(=O)Nc3cc(C)on3)n2)c1,-2.8%,-0.9%,·,0.1%
Cc1ccccc1-c1nnn(CC(=O)N(C)CC(=O)Nc2ccccc2C(F)(F)F)n1,-15.3%,-1.1%,·,·
COc1cccc(S(=O)(=O)NC2CCN(C#N)C2)c1 (stereo not drawn),-3.0%,1.3%,·,·
COC(=O)c1cc(NS(=O)(=O)c2ccc(N3CCCCCC3)c([N+](=O)[O-])c2)cc(C(=O)OC)c1,10.2%,1.1%,-4.7,-3.7%
COc1cc(OC)cc(C(=O)NCC(=O)NC(C)CCc2ccccc2)c1 (stereo not drawn),6.3%,2.3%,·,1.9%
CCCc1nc(NC2CCCCC2)c(C#N)c2c1COC(C)(C)C2,7.1%,-2.3%,-2.9,2.7%
COc1ccc(/C=N/NC(=O)c2nc(Cl)c(Cl)c(N)c2Cl)cc1COc1ccc(F)cc1F,4.0%,6.8%,3.7,-12.0%
O=C(Nc1cc(-c2nc3ncccc3o2)ccc1Cl)c1ccco1,-8.1%,-2.0%,·,-3.9%
CSc1ccc(/C=N/n2c(C)nnc2C)cc1,16.9%,-1.8%,11.1,1.4%
CCN(CC)CCNC(=O)C1c2ccccc2C(=O)N(CCOC)C1c1ccc(F)cc1 (stereo not drawn),8.2%,1.6%,2.8,-1.4%
O=C(CNc1ccccc1Cl)N/N=C1\CCCc2ccccc21,-2.4%,-0.5%,0.4,-3.4%
O=S(=O)(O)c1cccc(N=Nc2c(O)ccc3ccccc23)c1,40.8%,?,5.5,12.7%
CCCOc1ccc(-c2cn3ccccc3n2)cc1[N+](=O)[O-],-8.7%,-0.5%,-4.3,-47.6%
CC(=NC1CC1)C1=C(O)c2ccccc2C1=O,7.9%,2.2%,-5.4,-41.2%
Cc1ccccc1Nc1nc(N)nc(CSc2nnc3sc4ccccc4n23)n1,11.3%,-1.4%,0.0,-25.0%
Cc1ccc(C)c(-n2nnnc2SCC(=O)c2c(N)n(C)c(=O)n(C)c2=O)c1,·,·,7.0,4.5%
O=S(=O)(c1ccc(Cl)cc1Cl)n1ccc2cccnc21,-9.1%,0.3%,8.1,-6.0%
O=C(Nc1nnc(-c2ccccc2)s1)c1ccc(F)cc1,-6.4%,-0.7%,-0.3,-27.5%
COc1ccc2oc(C(=O)OCC(=O)N3CC(C)OC(C)C3)c(C)c2c1 (stereo not drawn),-0.9%,0.8%,·,-6.0%
CCCCN(C)CCNC(=S)Nc1ccc2nc(N3CCN(CC)CC3)cc(C)c2c1,2.7%,?,·,0.8%
Cc1cc(F)ccc1S(=O)(=O)NCC(c1cccnc1)N1CCc2ccccc21 (stereo not drawn),-3.4%,5.1%,·,-2.6%
COc1ccc(-c2cc(-c3cc(F)ccc3O)[nH]n2)cc1OC,3.0%,-0.5%,-4.4,-30.5%
COc1ccc(NC(=O)c2cc(F)cc(F)c2)cc1S(=O)(=O)N1CCCCC1,1.3%,-1.3%,·,·
CC(=O)OC(Cn1nc(C)cc1C)c1ccccc1 (stereo not drawn),2.8%,6.4%,-6.4,-5.8%
Cc1nnc(SCc2ccon2)n1-c1ccccc1,9.4%,1.4%,-0.4,-7.1%
Cc1ccc(CSc2nnc3ccc(-c4ccncc4)nn23)cc1,0.1%,3.5%,-3.7,-14.5%
CCOC(=O)c1c(-c2ccc(C)o2)csc1N,0.1%,-0.9%,-0.6,-12.6%
O=C(NC1CCCC1)C(=O)c1c[nH]c2ccccc12,-22.2%,-0.1%,·,-58.9%
CCN1C(=O)/C(=C\C=C\c2ccccc2[N+](=O)[O-])SC1=S,-8.0%,-1.2%,3.4,4.2%
COCCNc1oc(/C=C/c2ccccc2OC)nc1S(=O)(=O)c1ccccc1,-9.5%,?,·,-5.6%
COc1ccc2nc(N)sc2c1,-9.2%,0.9%,4.7,-20.5%
O=C(NC(=S)NCCN1CCOCC1)c1ccc(Cl)cc1Cl,9.0%,0.3%,-9.2,-9.2%

# No new results follow: entries from further up.
SMILES,Rango dissoc inh,Rango complex inh,GLA inh pH 4.5,miR-21 FLuc
COc1ccc(-c2cc(-c3cc(F)ccc3O)[nH]n2)cc1OC,3.0%,-0.5%,-4.4,-30.5%
COc1ccc(NC(=O)c2cc(F)cc(F)c2)cc1S(=O)(=O)N1CCCCC1,1.3%,-1.3%,·,·
CC(=O)OC(Cn1nc(C)cc1C)c1ccccc1 (stereo not drawn),2.8%,6.4%,-6.4,-5.8%
Cc1nnc(SCc2ccon2)n1-c1ccccc1,9.4%,1.4%,-0.4,-7.1%
Cc1ccc(CSc2nnc3ccc(-c4ccncc4)nn23)cc1,0.1%,3.5%,-3.7,-14.5%
CCOC(=O)c1c(-c2ccc(C)o2)csc1N,0.1%,-0.9%,-0.6,-12.6%
O=C(NC1CCCC1)C(=O)c1c[nH]c2ccccc12,-22.2%,-0.1%,·,-58.9%
CCN1C(=O)/C(=C\C=C\c2ccccc2[N+](=O)[O-])SC1=S,-8.0%,-1.2%,3.4,4.2%
COCCNc1oc(/C=C/c2ccccc2OC)nc1S(=O)(=O)c1ccccc1,-9.5%,?,·,-5.6%
COc1ccc2nc(N)sc2c1,-9.2%,0.9%,4.7,-20.5%
O=C(NC(=S)NCCN1CCOCC1)c1ccc(Cl)cc1Cl,9.0%,0.3%,-9.2,-9.2%

# The main list resumes with the 2 entries that preceded the break.
SMILES,Rango dissoc inh,Rango complex inh,GLA inh pH 4.5,miR-21 FLuc
COc1ccc2nc(N)sc2c1,-9.2%,0.9%,4.7,-20.5%
O=C(NC(=S)NCCN1CCOCC1)c1ccc(Cl)cc1Cl,9.0%,0.3%,-9.2,-9.2%
CCCCNC(=S)N(CCO)Cc1cc2cc3c(cc2[nH]c1=O)OCCO3,0.3%,-1.1%,·,-1.9%
O=C(CN1C(=O)NC2(CCCCC2)C1=O)Nc1ccc(N2CCOCC2)cc1,4.0%,-4.5%,5.6,-7.1%
CC(C)c1ccc(C(=O)NCCCc2ccccc2)cc1,-4.7%,0.6%,-2.1,-56.3%
O=C(c1ccc(S(=O)(=O)Nc2cccc(C(F)(F)F)c2)cc1)N1CCN(c2ccccc2O)CC1,11.8%,-0.1%,·,·
CC1CCC2(CC1)NC(=O)N(CC(=O)Nc1ccccc1-c1ccccc1)C2=O (stereo not drawn),10.4%,-3.1%,-13.6,-4.6%
CC(C)CC(NC(=O)OC(C)(C)C)c1cn([C@@H](Cc2ccc(O)cc2)C(=O)N2CCN(C(=O)OC(C)(C)C)CC2)nn1 (stereo partly drawn),14.8%,?,-9.8,-0.4%
CCC(=O)Nc1c2c(nn1-c1ccc([N+](=O)[O-])cc1)CS(=O)(=O)C2,0.2%,-2.4%,·,-2.6%
COc1ccc(-c2cc(C(F)(F)F)n3nc(C(=O)Nc4c(C)n(C)n(-c5ccccc5)c4=O)cc3n2)cc1,10.7%,4.3%,6.3,-1.3%
COc1ccc(-c2cn(Cc3ccc(C(=O)NCc4ccc(C)cc4)cc3)c(C(C)N)n2)cc1 (stereo not drawn),0.4%,0.8%,·,·
CN1N=C(c2ccc(F)c(F)c2)CSC1=NCc1ccccc1,-11.3%,-3.6%,-20.7,-16.4%
Cc1cc(=O)oc2cc(OCC(=O)N3CCC(O)CC3)c(Cl)cc12,8.1%,0.0%,·,-1.2%
NC[C@@H]1O[C@H](C23CC4CC(CC(C4)C2)C3)Cc2c1ccc(O)c2O,?,5.5%,-3.9&-0.1&-4.5,22.4%
O=C(Nc1ccccc1N1CCOCC1)C1=NN(c2c(F)c(F)cc(F)c2F)C(=O)CC1,0.6%,1.4%,·,·
Cn1cc(S(=O)(=O)N2CCCC2)cc1C(=O)NCc1ccccc1Cl,-2.0%,-1.6%,·,0.0%
O=S(=O)(Nc1ccc(O)c(CN2CCCCC2)c1)c1ccccc1,-6.6%,2.4%,14.2,-4.6%
CCc1ccc(NC(=O)CSc2nc3n[nH]c(C)c3c(=N)n2-c2cccc(OC)c2)cc1,-8.5%,-0.6%,-2.9,12.8%
COc1ccc(-c2nn(-c3ccccc3C)cc2CNCc2cccnc2)cc1F,-8.3%,2.7%,-7.4,-11.9%
O=C1C=CC(=O)N1c1ccc(N2CCCCC2)cc1,9.2%,-4.2%,1.4,?
CCNC(=S)Nc1ccc(Oc2ccccc2)cc1,15.0%,-0.1%,·,·
Cc1ccc2nc(-c3cccnc3)cc(C(=O)Nc3ccccc3[N+](=O)[O-])c2c1,-18.2%,?,·,-1.5%
COc1ccccc1N(C)S(=O)(=O)c1ccc(C)c(C(=O)N2CCCCCC2)c1,-1.1%,-2.5%,·,·
CCCN1CCC(NC(=O)c2cccc(Oc3ccccc3)c2)CC1,2.3%,-1.1%,·,-2.5%
O=C(COC(=O)CCN=C1NS(=O)(=O)c2ccccc21)NNC(=O)c1ccccc1,-10.6%,-2.8%,·,·
Nc1nnnn1/N=C/c1cc(Br)ccc1O,-5.1%,-5.4%,·,·
CCN1C(=O)[C@H]2[C@@H](c3ccc(OC)cc3)N3C(=O)CN(Cc4ccccc4)C(=O)[C@@]3(C)[C@H]2C1=O,1.3%,4.8%,·,4.8%
Cc1cc(C(=O)N2CCCC(N3CCN(c4ccc(F)cc4)CC3)C2)no1 (stereo not drawn),4.1%,-2.3%,·,1.2%
CCN1CCN(CCNC(=O)c2cn(Cc3ccccc3F)nn2)CC1,18.8%,?,5.2,-3.5%
CC(C)CN1C(=O)NC2(CCCc3ccccc32)C1=O (stereo not drawn),-6.1%,-1.0%,·,0.2%
Cc1ccc(NC(=O)CCNS(=O)(=O)c2ccc3c(c2)CCC(=O)N3)cc1,-4.8%,-1.3%,·,0.1%
CCN(CC)S(=O)(=O)c1cccc(C(=O)N/N=C/c2ccccn2)c1,-15.1%,-3.7%,-3.1,-1.4%
CCOc1ccc(NC(=S)N2CCC(C(=O)c3ccc(F)cc3)CC2)cc1,0.2%,8.3%,·,·
COC(c1ccccc1)c1nnc(CCC(=O)N(C)CCCC2CCCC2)o1 (stereo not drawn),12.5%,-3.8%,-8.3,-38.5%

# Screening results (PubChem)
